MT stabilize HCS = microtubule stabilization, imaging screen | HeLa tubulin immunostaining HCS, 24 h; share of cells brighter than vehicle mean+2SD | % tubulin-high responders, % at 10 µM | 200,000 tested, 0.83% active;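 active = plate Z-score above 3 for both tubulin-high and condensed-nucleus cell shares, with cell loss under 80%, at 10 µM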;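 note: anti alpha tubulin signal scored within the nucleus-defined area of each cell; some results filed as inactive read as strong as hits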
Yfh1-depleted yeast = mitochondrial function rescue without frataxin homolog – Friedreich's ataxia, plus single-dose screen, dose response (AID 1465). fold induction at 50 µM; hits with a dose series show EC50 in µM. 220,000 tested, 0.074% active. S. cerevisiae Yfh1-off respiration, WST-1 reduction, 72 h; higher fold induction means a stronger effect;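 active = fold induction of absorbance versus untreated yeast above a set limit, then at least 30% activation at any dose in follow-up; inconclusive = repeats straddling the limit, or above it without dose testing; inactive = fold induction below the set limit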;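 note: activators that raise dye reduction in frataxin-depleted yeast; strong numbers were not always called active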
Insulin prom up = MIN6 insulin promoter up-regulation. MIN6 insulin promoter-GFP reporter, high-content imaging; stronger effect = higher value. z-score at 5 µM. 190,000 tested, 0.3% active. AID 1625;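 active = z-score above 3 at 5 µM with at least 500 cells counted in the well; inconclusive = wells under 500 cells, flagged as cytotoxic or low count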
M17LAP inhibition = P. falciparum M17LAP inhibitors, primary screen, biochemical, fluorogenic H-Leu-NHMec substrate, 1536-well (AID 1619); recombinant M17LAP, H-Leu-NHMec fluorogenic kinetic assay; higher % means a stronger effect; inhibition, % at 30 µM; hits with a dose series show IC50 in µM; 220,000 tested, 0.38% active;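 active = compound inhibiting the enzyme by more than half at any dose during confirmatory dose-response retesting; inconclusive = strong single-dose inhibitors picked by rank but not retested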;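 note: plate controls were full reaction with DMSO carrier for no effect and no enzyme background for full effect; strong numbers were not always called active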
Autophagy HCS = autophagy modulation, high-content screen; calls only at 10 µM (by protocol); MEF GFP-LC3 puncta imaging; test concentration mostly 10 µM; 190,000 tested, 0.98% active;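 active = percentage of spot-positive cells more than 3 SD above its plate mean, without a fluorescence outlier flag or 80% toxicity; inconclusive = no clear call, values can overlap the other calls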;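 note: spot-positive cell cutoff set from DMSO-treated cells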
Dynein cargo inh = blocks dynein driven cargo transport along microtubules | z-score, hits read low | 3617.4 mouse cells, GR-EGFP nuclear translocation imaging; test concentration mostly 20 µM; stimulated with dexamethasone, 1 µM; stronger effect = lower value | AID 1381 | 220,000 tested, 0.47% active;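 active = plate z-score of nuclear minus cytoplasmic receptor signal below a set negative limit, without overly bright fluorescence or cell loss, cut at about -3.5 in these data, passing the limit was not always enough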;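 note: z-score of nuclear minus cytoplasmic ring GR-EGFP intensity difference per well; some compounds called inactive have numbers as strong as hits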
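Buffer or medium: tet-free, stripped-serum medium; Also added: dexamethasone, 1.0 µM final; Technique: high-content fluorescence imaging after fixation; Times: 48 h induction, 1 h compound, 30 min dex at 37 °C; Read-out: per-cell GR-EGFP intensity, nucleus versus surrounding cytoplasmic ring, well-averaged.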
Dynein cargo inh cytoplasmic EGFP = recorded beside Dynein cargo inh, whose call it bears; z-score; measured here: cytoplasmic GR-EGFP intensity; stronger effect = higher value
Dynein cargo inh nuclear GR-EGFP = also measured in Dynein cargo inh; calls as there; z-score; measured here: nuclear GR-EGFP intensity;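 lower value marks the stronger effect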
Dynein cargo inh cell count = also measured in Dynein cargo inh; calls as there; z-score; measured here: cell count per field
Insulin prom up cell count = recorded beside Insulin prom up, whose call it bears; cell count; measured here: cytotoxicity, nuclei count;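 total cells summed across four imaged fields per well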
MT stabilize HCS Hoechst-high % = recorded beside MT stabilize HCS, whose call it bears; % Hoechst-high responders; measured here: nuclear condensation Hoechst responders;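 share of cells brighter than vehicle mean plus two SD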
MT stabilize HCS cytotoxicity % = also measured in MT stabilize HCS; calls as there; toxicity, %; measured here: cytotoxicity by cell density;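 0% = mean cell density of plate MIN control wells and 100% = no cells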
Autophagy HCS cell loss 18 h = further read-out of Autophagy HCS, marked with its call; toxicity, %; measured here: cell loss, nuclei count;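 cell loss after 18 h compound exposure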
The depositor's hits bear a star; i = inactive; u = inconclusive; x = not tested or not shown; + = active, no number. A portion of the library, so the mix of outcomes need not match the whole.

SMILES	MT stabilize HCS	MT stabilize HCS Hoechst-high %	MT stabilize HCS cytotoxicity %	Yfh1-depleted yeast	Insulin prom up	Insulin prom up cell count	M17LAP inhibition	Autophagy HCS	Autophagy HCS cell loss 18 h	Dynein cargo inh	Dynein cargo inh cytoplasmic EGFP	Dynein cargo inh nuclear GR-EGFP	Dynein cargo inh cell count
Cc1cccc(Nc2nnc(-c3ccc(C(=O)N4C[C@H]5C[C@H](C4)c4cccc(=O)n4C5)cc3)c3ccccc23)c1	3.7	2.1	8.7	i	-1.42	981	-4.5%	i	0.3	-0.521	-0.162	-0.136	0.944
CCOC(=O)/C=C1\NC(C)(C)Cc2cc(OC)c(O)cc21	4.4	2.2	10.5	i	-0.57	1394	3.8%	i	-2.8	-0.747	-0.164	-0.108	-0.47
Cc1ccc2c(n1)CC(C)(C)CC2=O	3.3	1.9	3.3	i	-0.38	1530	-1.0%	i	-26.7	-0.194	-0.188	0.382	0.827
O=C(NCC1CCCO1)C1CCN(S(=O)(=O)N2CCCC2)CC1 (stereo not given)	1.7	0.5	4.3	i	3.58*	1575*	-3.2%	i	6.5	0.363	-0.207	-0.0384	0.451
O=C(O)CCc1nn2c3ccccc3nc2n(CCN2CCCCC2)c1=O	3.7	2.8	2.4	i	-0.11	1749	-5.2%	i	17.1	-0.936	-0.315	-0.248	0.399
CCCCC(=O)Nc1cc(C(=O)NCCc2ccccc2)ccc1Cl	3.0	2.0	7.0	i	-0.7	1686	-5.0%	i	12.6	1.58	-0.216	1.47	-0.211
COc1ccc(OC)c(NC(=O)C(CC(=O)O)NCc2ccco2)c1 (stereo not given)	1.9	1.2	6.5	i	-0.16	1687	1.8%	i	-12.6	-0.209	-0.209	-0.114	0.265
O=C1Nc2cc(C(=O)N3CCOCC3)ccc2SC1N1CCOCC1 (stereo not given)	3.4	3.6	13.0	x	0.46	1604	9.1%	i	5.0	0.682	-0.432	0.373	-0.63
COCc1nnc(NC(=O)CSc2ccc(C)cc2)s1	4.8	3.7	2.1	i	1.57	1272	9.4%	i	-9.0	-0.834	-0.324	-0.389	0.534
Cc1ccc(SCc2nc(-c3cccnc3)no2)cc1	1.6	2.8	20.8	i	0.98	1374	3.6%	i	-3.6	-0.0523	-0.0142	0.147	1.26
COc1cccc(C2CC(C(F)(F)F)n3ncc(C(=O)NC(C)(C)C)c3N2)c1 (stereo not given)	2.0	1.1	5.3	i	-0.41	1462	-1.3%	i	-1.3	-0.602	-0.233	-1.01	0.114
CCOC(=O)c1c(C)[nH]c(C)c1C(=O)COC(=O)c1cccc(S(=O)(=O)N(CC)CC)c1	1.8	1.2	5.9	x	0.27	1628	3.5%	i	2.3	-0.6	-0.184	-1.03	-0.123
COc1ccc(-c2cnnn2-c2ccc(NC(=O)c3ccco3)cc2)cc1OC	4.8	3.0	7.3	i	0.01	1585	9.6%	i	9.3	0.264	-0.24	0.178	0.152
O=C(c1cccs1)N1CCN(C(=O)C(c2ccccc2)c2ccccc2)CC1	2.3	1.7	8.1	i	0.26	1468	2.2%	i	-1.4	-0.543	-0.21	-1	0.841
CSc1ccc(S(=O)(=O)NCc2ccccc2Cl)cc1	2.0	2.0	3.6	i	0.3	1237	4.0%	i	-2.6	-0.388	-0.216	-0.286	0.254

Reprinted from the part before: two compounds, then new ones.
SMILES	MT stabilize HCS	MT stabilize HCS Hoechst-high %	MT stabilize HCS cytotoxicity %	Yfh1-depleted yeast	Insulin prom up	Insulin prom up cell count	M17LAP inhibition	Autophagy HCS	Autophagy HCS cell loss 18 h	Dynein cargo inh	Dynein cargo inh cytoplasmic EGFP	Dynein cargo inh nuclear GR-EGFP	Dynein cargo inh cell count
O=C(c1cccs1)N1CCN(C(=O)C(c2ccccc2)c2ccccc2)CC1	2.3	1.7	8.1	i	0.26	1468	2.2%	i	-1.4	-0.543	-0.21	-1	0.841
CSc1ccc(S(=O)(=O)NCc2ccccc2Cl)cc1	2.0	2.0	3.6	i	0.3	1237	4.0%	i	-2.6	-0.388	-0.216	-0.286	0.254
CC(=O)NC(=S)Nc1ccc(-c2nc3ccc(C)cc3s2)cc1	1.9	1.5	8.5	i	-0.28	1360	2.6%	i	11.4	-0.0222	-0.198	0.541	0.802
CCSc1nc2nc(C)cc(C)n2n1	1.7	1.6	13.0	i	-0.11	1654	-3.2%	i	29.5	-0.393	0.379	-0.104	0.128
O=C(NC(Cc1c[nH]c2ccccc12)c1nnc2n1CCCCC2)c1ccccc1 (stereo not given)	2.1	1.9	5.3	i	-0.51	1607	1.8%	i	-10.3	-0.651	-0.228	-0.95	0.952
CCc1ccc(NCCC(=O)c2ccc(Cl)cc2)cc1	1.1	1.3	9.5	i	0.69	1466	0.6%	i	23.9	0.225	-0.199	0.606	0.602
O=C1CSC(c2ccccn2)N1c1ccc2ccccc2c1 (stereo not given)	4.6	1.9	1.9	i	0.41	1568	1.9%	i	-0.4	0.976	0.0248	0.981	-1.77
C=CCNC(=O)c1ccccc1Cl	5.4	3.7	8.2	i	0.45	1593	-5.5%	i	-4.8	0.174	-0.28	0.163	-0.0273
CCCCCn1c(SCC(=O)c2ccccc2)nc2cc(C(=O)NCc3ccco3)ccc2c1=O	1.0	1.7	6.2	i	1.75	1573	18.8%	i	0.5	-0.778	-0.0324	-0.278	0.308
Cc1ccc(OCCNC(=O)/C=C/c2ccc([N+](=O)[O-])cc2)cc1C	3.1	1.7	6.0	i	0.48	1565	2.3%	i	-14.3	0.752	-0.215	0.971	0.289
CCCc1nnc(NC(=O)C(CC)OC(=O)c2cc(C)nc3ccccc23)s1 (stereo not given)	1.7	1.1	4.2	i	0.35	1449	0.9%	i	0.9	0.805	-0.192	0.058	-0.216
CCc1ccc(-c2csc(NC(=O)C3CCCO3)c2C(=O)OC(C)C)cc1 (stereo not given)	1.8	1.8	7.6	i	-1.22	1260	57.8%	i	10.6	-0.321	-0.209	0.377	1.05
CCCCn1nc2cc(C(=O)NCc3ccccc3)ccc2c1OCC	2.9	1.9	4.0	i	-0.26	1642	-42.1%	i	12.0	0.00351	0.542	0.715	0.339
COc1ccc(NC(=O)CSc2ncnc3c2cnn3CCc2ccccc2)cc1	2.0	1.4	7.9	i	0.11	1637	1.2%	i	-25.0	1.21	-0.142	1.29	0.0266
Cc1ccccc1NCC(=O)N/N=C/C(Br)=C/c1ccccc1	26.3*	24.9*	28.7*	i	0.53	733	7.2%	i	-8.8	-0.676	-0.157	-0.0911	0.524
CCOc1ccc(N=C2NC(=O)S/C2=C\c2ccc(O)cc2)cc1	2.8	2.6	8.6	i	-0.21	1506	-6.8%	i	8.7	-0.335	-0.189	0.579	0.714
COc1ccc(CCNc2cc(N3CCN(C(=O)c4ccccc4F)CC3)ccc2[N+](=O)[O-])cc1OC	1.1	2.1	7.5	x	u	x	-5.9%	+	29.5*	-0.494	-0.188	-0.315	0.0109
CCCN(/C=N/c1sc2c(c1C#N)CCCCC2)CCC	2.6	1.7	10.0	i	0.41	1514	13.6%	i	2.1	0.81	-0.14	-0.128	-1.07
CCCCn1nc2cc(C(=O)NCc3ccc(C(F)(F)F)cc3C(F)(F)F)ccc2c1OCC	2.6	1.4	0.7	i	-0.13	1626	4.6%	i	-21.5	0.721	-0.213	0.954	-0.424
CCCCCNCc1ccc(Br)cc1	3.3	1.2	9.5	i	0.35	1697	16.2%	i	-21.4	-1.06	-0.0803	0.0836	1.05

2 compounds picked at random from those above, as already listed:
SMILES	MT stabilize HCS	MT stabilize HCS Hoechst-high %	MT stabilize HCS cytotoxicity %	Yfh1-depleted yeast	Insulin prom up	Insulin prom up cell count	M17LAP inhibition	Autophagy HCS	Autophagy HCS cell loss 18 h	Dynein cargo inh	Dynein cargo inh cytoplasmic EGFP	Dynein cargo inh nuclear GR-EGFP	Dynein cargo inh cell count
CCCCCNCc1ccc(Br)cc1	3.3	1.2	9.5	i	0.35	1697	16.2%	i	-21.4	-1.06	-0.0803	0.0836	1.05
CCCN(/C=N/c1sc2c(c1C#N)CCCCC2)CCC	2.6	1.7	10.0	i	0.41	1514	13.6%	i	2.1	0.81	-0.14	-0.128	-1.07

Just Autophagy HCS cell loss 18 h and M17LAP inhibition (5 entries from above):
SMILES	Autophagy HCS cell loss 18 h	M17LAP inhibition
CCSc1nc2nc(C)cc(C)n2n1	29.5	-3.2%
O=C(NC(Cc1c[nH]c2ccccc12)c1nnc2n1CCCCC2)c1ccccc1 (stereo not given)	-10.3	1.8%
CCc1ccc(NCCC(=O)c2ccc(Cl)cc2)cc1	23.9	0.6%
O=C1CSC(c2ccccn2)N1c1ccc2ccccc2c1 (stereo not given)	-0.4	1.9%
C=CCNC(=O)c1ccccc1Cl	-4.8	-5.5%

Assay outcomes: PubChem, several laboratories
